Source: PubChem BioAssay (National Center for Advancing Translational Sciences (NCATS))
miR-21 FLuc = qHTS Assay for Modulators of miRNAs and/orActivators of miR-21. HeLa miR-21 FLuc reporter, luciferase, 48 h. Potency, µM (top dose mostly 38.3 µM), inactives show top-dose reporter change, positive = more light. 340,000 tested, under 10 active; active = well fitted rising curve with a large enough effect; inconclusive = small, poorly fitted or top-dose-only effect; inactive = no such curve, though single readings can be large or run the other way;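 further: % of control where 0% means no effect; miR-21 action dims this reporter so a rising signal means less miR-21 action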
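Using DMEM plus 10% FBS, HeLa miR-21-FLuc cells are incubated with test compounds (final up to about 40uM) for 48 hours; firefly luciferase signal is then imaged following reagent-mediated lysis.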
Rango-impB inh = qHTS Assay for Inhibitors of Rango (Ran-regulated importin-beta cargo) - Importin beta complex formation; Rango CFP/YFP FRET sensor + importin beta, 45 min; Potency, µM (top dose mostly 92.2 µM), for the others: at the top dose inhibition of complex formation; 340,000 compounds, 0.031% hits; AID 540263, 2011; active = rising FRET ratio curve, often small or poorly fitted; inconclusive = mostly compound fluorescence or quenching in the first reads; inactive = flat curves in all reads;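 further: potency means the concentration at half of the fitted maximal effect; 0% = DMSO wells and 100% = buffer wells lacking importin beta; nearly all actives have a fitted effect of over 15% in size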
Target sequence (Q14974 whole entry, looked up): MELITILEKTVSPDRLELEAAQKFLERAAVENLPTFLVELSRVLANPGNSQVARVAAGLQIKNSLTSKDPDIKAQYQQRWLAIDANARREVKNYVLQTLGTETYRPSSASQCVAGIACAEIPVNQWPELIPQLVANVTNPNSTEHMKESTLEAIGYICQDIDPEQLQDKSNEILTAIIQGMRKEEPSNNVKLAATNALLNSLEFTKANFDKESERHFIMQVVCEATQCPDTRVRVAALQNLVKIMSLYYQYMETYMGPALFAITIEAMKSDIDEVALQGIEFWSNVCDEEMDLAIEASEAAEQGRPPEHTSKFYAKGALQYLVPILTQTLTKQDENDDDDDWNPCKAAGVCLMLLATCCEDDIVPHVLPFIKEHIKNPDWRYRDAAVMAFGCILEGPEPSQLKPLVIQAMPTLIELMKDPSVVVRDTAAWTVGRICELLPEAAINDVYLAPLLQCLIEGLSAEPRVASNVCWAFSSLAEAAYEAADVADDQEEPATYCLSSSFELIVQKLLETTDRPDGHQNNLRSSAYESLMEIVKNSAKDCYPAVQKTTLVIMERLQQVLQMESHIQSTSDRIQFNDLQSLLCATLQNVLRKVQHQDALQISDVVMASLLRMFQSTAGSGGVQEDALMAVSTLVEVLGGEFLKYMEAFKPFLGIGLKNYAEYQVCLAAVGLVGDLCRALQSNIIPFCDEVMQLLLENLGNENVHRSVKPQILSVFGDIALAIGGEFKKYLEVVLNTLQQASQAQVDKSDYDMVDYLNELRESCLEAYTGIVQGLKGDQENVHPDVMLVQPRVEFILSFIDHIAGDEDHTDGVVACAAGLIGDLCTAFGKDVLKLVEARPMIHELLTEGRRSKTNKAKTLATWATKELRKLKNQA
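FRET biosensor Rango (snurportin 1 IBB between N-terminal EYFP and C-terminal Cerulean), 50 nM in PBS/1 mM DTT/0.02% Tween-20/0.1% BSA, preincubated 5 min RT with compound; 0.125 microM importin beta added, 45 min RT, CFP/YFP FRET ratio read.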
Rango release inh = qHTS Assay for Inhibitors of RanGTP induced Rango (Ran-regulated importin-beta cargo) - Importin beta complex dissociation; Potency, µM (titrated, usually from 46.1 µM), without a hit: at the top dose activity change, negative = inhibition; Biochemical FRET Rango-importin beta, RanGTP-induced dissociation; Snurportin-1 (Homo sapiens) + GTP-binding nuclear protein Ran (Homo sapiens) + Importin …; AID 540253, 2011; 340,000 compounds, 0.071% hits; active means falling FRET ratio curve, often poorly fitted, with flat reads before Ran was added; inconclusive means other falling curves, or compound fluorescence or quenching; inactive means flat or rising ratio curve;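 further: potency means the concentration at half of the fitted maximal effect; % of control where 0% means no effect; nearly all actives have a fitted effect of over 45% in size; -100% = wells without RanGTP and RCC1; the record marks most hits as doubtful in a second field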
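Quantitative HTS using a FRET biosensor: 0.1 uM Rango, 0.25 uM importin beta, 0.6 uM Ran, 2 mM GTP, 0.2 uM RCC1 final, PBS with DTT, Tween-20 and BSA. Post-read taken 45 min after Ran addition.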
GLA inh pH 4.5 = qHTS Assay for Inhibitors of Human alpha-Galactosidase at pH 4.5. Alpha-galactosidase A (Homo sapiens), P06280. purified enzyme, 4-MU-alpha-Gal fluorescence, pH 4.5. activity change, negative = inhibition, % at 105 µM. 230,000 tested, under 10 active; inconclusive = small, poorly fitted or top-dose-only inhibition, or a rising curve; inactive = flat fitted curve, though single readings scatter; no compound was filed as active;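 further: 0% = full activity with enzyme and -100% = basal without enzyme; dose as in the result columns while the protocol names 77 µM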
* hit, by the source's call; ? = inconclusive; / = not tested or not shown. This is a subset; the hit share may differ from the screen's.

Each structure is followed by: miR-21 FLuc, Rango-impB inh, Rango release inh, GLA inh pH 4.5
> O=C(Cn1ncc2c3ccccc3n(Cc3ccccc3)c2c1=O)NCCCN1CCCC1=O
→ 6%, 2.1%, -12%, /
> O=S(=O)(c1ccc(=S)[nH]c1)N1CCCC1
→ /, -1.4%, 10%, /
> COC(=O)c1ccc(Nc2nc(C)cc(C)n2)cc1
→ -24%, 0.7%, 2%, -2
> Cc1cccc(-c2nnc3sc(-c4ccccc4C)nn23)c1
→ -43%, 1.1%, -3%, 9
> CCN(CC)C(C(=O)NC1CCCCC1)c1ccc(C)cc1 (centres undefined)
→ 0%, -3.5%, 4%, 1
> C/C(=N\OC(=O)c1ccc(F)cc1)c1sc(-c2ccccc2)nc1C
→ -27%, -1.0%, -23%, 4
> Cc1cccc(SCc2noc(C(=O)NC(C)C)c2C(=O)O)c1
→ -15%, -3.4%, -9%, 9
> COc1ccc2nc(N3CCCC(C(=O)NCCCN4C(C)CCCC4C)C3)sc2c1 (centres undefined)
→ -12%, 2.4%, -8%, /
> CC1Nc2nc(N(C)C)[nH]c(=O)c2NC1C (centres undefined)
→ 1%, ?, ?, 2
> O=c1ccc2cc(S(=O)(=O)N3CCN(c4ccccc4)CC3)ccc2o1
→ -2%, -1.9%, -5%, 6
> O=C(NCCc1ccccc1)c1cccc(NC(=O)c2ccccc2)c1
→ /, 0.4%, 0%, /
> O=c1[nH]c(=O)n(-c2cc(Br)c(O)c(Br)c2)cc1Br
→ -3%, ?, -13%, /
> O=C(COC(=O)c1ccc(F)cc1F)Nc1ccc(Cl)cn1
→ /, -0.7%, 23%, /
> Cc1ccc(C(=O)NNC2=Nc3cccc4cccc2c34)cc1
→ -3%, -4.3%, -27%, 3
> Cc1ccc(C(=O)COC(=O)CSc2cccc3cccnc23)c(C)c1
→ /, 0.6%, -1%, /
> CSCCC(N=C1NS(=O)(=O)c2ccccc21)C(=O)N1CCCC(C(N)=O)C1 (centres undefined)
→ /, -1.8%, ?, /
> O=C(CNC(=O)C(c1ccccc1)c1ccccc1)N/N=C\c1ccc2c(c1)OCO2
→ -2%, 1.2%, -16%, -2
> COC(=O)Nc1c(C)n(C)n(-c2ccccc2)c1=O
→ -2%, 0.4%, -15%, -12
> CCc1ccc(NC(=O)C(C)OC(=O)c2cc(=O)[nH]c3ccc(S(=O)(=O)Nc4ccc(F)cc4)cc23)cc1 (centres undefined)
→ -3%, 1.4%, 9%, 6
> CN1CCN(C(=O)c2ccc(-n3cccc3)cc2)CC1
→ -10%, 0.1%, 1%, 7

6 compounds already listed, ordered by the number in miR-21 FLuc, low to high:
Each structure is followed by: miR-21 FLuc, Rango-impB inh, Rango release inh, GLA inh pH 4.5
> Cc1cccc(-c2nnc3sc(-c4ccccc4C)nn23)c1
→ -43%, 1.1%, -3%, 9
> C/C(=N\OC(=O)c1ccc(F)cc1)c1sc(-c2ccccc2)nc1C
→ -27%, -1.0%, -23%, 4
> Cc1cccc(SCc2noc(C(=O)NC(C)C)c2C(=O)O)c1
→ -15%, -3.4%, -9%, 9
> COc1ccc2nc(N3CCCC(C(=O)NCCCN4C(C)CCCC4C)C3)sc2c1 (centres undefined)
→ -12%, 2.4%, -8%, /
> Cc1ccc(C(=O)NNC2=Nc3cccc4cccc2c34)cc1
→ -3%, -4.3%, -27%, 3
> O=C(CNC(=O)C(c1ccccc1)c1ccccc1)N/N=C\c1ccc2c(c1)OCO2
→ -2%, 1.2%, -16%, -2

Next part
Each structure is followed by: miR-21 FLuc, Rango-impB inh, Rango release inh, GLA inh pH 4.5
> COc1cc(NC(=O)c2cc(-c3ccccc3Cl)on2)cc(OC)c1OC
→ 18%, 3.0%, 1%, /
> O=C(CSc1nnc(-c2ccccc2O)n1Cc1ccccc1)NNC(=O)c1ccccc1O
→ -4%, 1.7%, -5%, -19
> COc1ccc(-c2nc(C#N)c(NCc3ccc(C)cc3)o2)cc1OC
→ -61%, 2.4%, -10%, 2
> Cc1nn(CC(=O)Nc2cc(S(=O)(=O)N(C)C)ccc2Cl)c(C)c1[N+](=O)[O-]
→ -4%, -1.2%, 9%, -1
> CN(Cc1ccccc1)S(=O)(=O)c1ccc(NC(=O)c2ccccc2C(=O)O)cc1
→ /, -2.6%, -6%, /
> COCCCNC(=O)C1CCN(c2ncccn2)CC1
→ -5%, ?, -28%, -6
> Clc1ccc2nc3ccccn3c2c1
→ -15%, 0.1%, -4%, ?
> O=c1[nH]c2ccc(Cl)cc2c(-c2ccccc2)c1N1CCN(CCO)CC1
→ -4%, 0.1%, 1%, 2
> Nc1c(Cl)cc(C2=NCCn3c2c2ccccc2[n+]3[O-])cc1Cl
→ /, -1.6%, 17%, /
> O=C(NCCS(=O)(=O)NCCc1ccccc1)c1ccccc1
→ /, -5.0%, 38%, /
> O=C(Cn1cnc2c(nnn2-c2ccccc2)c1=O)N1CCCc2ccccc21
→ -2%, 1.3%, -28%, -5
> CNC(=S)NCCc1cc2c(OC)ccc(OC)c2[nH]c1=O
→ 0%, 2.3%, -15%, -3
> CC(Oc1ccc2c(-c3ccccc3)cc(=O)oc2c1)C(=O)NCC(O)c1ccccc1 (centres undefined)
→ 2%, 0.7%, ?, /
> O=C(C/C=N/OCc1ccccc1F)c1cnc(-c2ccc(Cl)cc2)s1
→ -9%, 0.2%, -8%, 8
> CC(=O)c1c(C)[nH]c(C(=O)N2CC(C)CC(C)C2)c1C (centres undefined)
→ 1%, 0.2%, 7%, /
> CCCCCCc1c(C)[nH]c2nc3ccccc3n2c1=O
→ -3%, 0.0%, -2%, /
> CCOc1ccccc1NC(=O)c1cc(CC(C)C)oc1C
→ -5%, 3.9%, -12%, -3
> CCC(Sc1ncnc2c1c(-c1ccccc1)cn2-c1ccc(OC)cc1)C(=O)OC (centres undefined)
→ -6%, -3.9%, -15%, -7
> Cc1ccc(C)n1-c1sc2c(c1C#N)CCCC2
→ -22%, -1.5%, 34%, -8
> COc1ccc(NC(=O)C2CCN(C(=O)c3cccs3)CC2)c(OC)c1
→ -1%, -0.6%, 1%, 6

Each structure is followed by: miR-21 FLuc, Rango-impB inh, Rango release inh, GLA inh pH 4.5
> COc1ccc([C@H]2CC(=O)C=C(c3cc(C)ccc3OC)C2)cc1
→ /, -1.7%, -1%, /
> COC(=O)c1cccc(COC(=O)c2ccccc2NC(=O)c2ccco2)c1
→ 0%, 3.2%, 1%, 3
> Cc1c(C(=O)Nc2ccc3c(c2)OCCO3)oc2ccc(Br)cc12
→ /, -4.1%, -12%, /
> CC(O)[C@H]1CNC(=O)C(=O)N1CCC12CC3CC(CC(C3)C1)C2 (some centres undefined)
→ -17%, 2.8%, -7%, 1
> O=C(CN1C(=O)NC(Cc2ccccc2)(Cc2ccccc2)C1=O)NCC1CCCCC1
→ 11%, 0.1%, -1%, 11
> COc1ccc(C2(CNC(=O)c3cc([N+](=O)[O-])cc([N+](=O)[O-])c3)CCCC2)cc1OC
→ 5%, -3.3%, 0%, 1
> Cc1ccc(C(=O)CCC(=O)Nc2cccc(C)c2)cc1
→ 0%, 0.2%, -11%, /
> COc1ccc(-c2c(C)nn3c(N)c(C#N)cnc23)cc1OC
→ -28%, -1.0%, -3%, -1
> Cc1ccc(S(=O)(=O)CCC(=O)c2cccc([N+](=O)[O-])c2)cc1
→ ?, -3.0%, 21%, /
> CCN(CC(=O)NCc1ccc(Cl)cc1)C(=O)CCc1ccccc1O
→ 0%, 2.7%, 0%, /
> Cc1ccc(-c2noc(CCC(=O)Nc3ccccc3C)n2)cc1
→ -11%, 8.7%, -8%, 8
> c1ccc(COc2ccccc2CNc2nn[nH]n2)cc1
→ -2%, 2.2%, -16%, 1
> COc1ccc(CCNC(=O)COc2ccc(S(=O)(=O)NC3CCCCC3)cc2Cl)cc1
→ 12%, -0.7%, 5%, -9
> Cc1ccccc1-c1nc(CN2CCC(C(=O)NCCCN3CC(C)CC(C)C3)CC2)c(C)o1 (centres undefined)
→ -15%, -0.5%, -2%, -1
> Cn1c(C(=O)NCc2ccccc2)cc2oc3ccccc3c21
→ -6%, 2.9%, 4%, -9
> CCOC1=CC(=O)N(Cc2ccccc2)C1
→ /, -2.1%, -2%, /
> O=C(COC(=O)c1cc[n+]([O-])cc1)Nc1ccc([N+](=O)[O-])cc1Cl
→ -1%, 0.6%, 11%, 10
> COc1ccc([C@H]2CC(=O)C=C(c3ccc(OC)cc3OC)C2)cc1
→ /, 2.5%, -3%, /
> COC(=O)C1=C(C)N=C2SCCC(=O)N2C1c1cc(Br)ccc1OC (centres undefined)
→ -5%, 5.9%, ?, 1
> CCOC(=O)c1sc(=S)n(Cc2ccccc2)c1C
→ -5%, 0.0%, 11%, -14

Structure	miR-21 FLuc	Rango-impB inh	Rango release inh	GLA inh pH 4.5
Cc1cnc(C(=O)N2CCCC(C(=O)c3ccc(C(C)(C)C)cc3)C2)cn1 (centres undefined)	-6%	-1.1%	9%	-3
CCOc1cc(C(=O)OCC(=O)Nc2ccc(Cl)cn2)ccc1OCC(=O)N1CCOCC1	-2%	-5.3%	6%	-22
Cc1c(C(=O)Nc2nccs2)oc2c(Cl)cccc12	/	2.2%	-11%	/
Cc1ccc2c(c1)C1CN(C)CCC1N2S(=O)(=O)c1ccccc1F (centres undefined)	/	-0.5%	8%	/
CCN(CC)S(=O)(=O)c1ccc(N2CCN(S(=O)(=O)c3ccccc3C#N)CC2)nc1	7%	-0.7%	4%	2
CCC(=O)N1CCc2cc(S(=O)(=O)NC(Cc3ccccc3)C(=O)NC3CCCCC3C)ccc21 (centres undefined)	-3%	3.6%	1%	7
COCCCNC(=O)c1ccc(CSCc2ccc(C)cc2)o1	-1%	-2.2%	-6%	/
O=C(Cn1c(=O)n(-c2ccc(F)cc2)c(=O)c2sccc21)c1ccccc1	-6%	-4.6%	4%	4
Cc1ccc(NC(=O)OCCNC(=O)c2ccncc2)cc1	-24%	-6.7%	-3%	-15
CCOC(=O)C1(C)NC(c2ccco2)C2C(=O)N(C)C(=O)C21 (centres undefined)	0%	0.6%	-2%	1
Cc1c(CN2CCC(C(=O)Nc3ccc(Oc4ccccc4)nc3)CC2)cnn1C	1%	-1.6%	-5%	/
CCOc1ccc(N/C=C/C(=O)c2ccc(OC)cc2)cc1	-11%	?	-18%	/
Cc1cc(C)n(S(=O)(=O)Cc2ccccc2)n1	-4%	-4.1%	-14%	-13
Cc1sc2ncn(CC(=O)N3CCCCC3)c(=O)c2c1S(=O)(=O)N1CCC(C)CC1	8%	-3.9%	4%	/
Cc1ccc2[nH]c3ccccc3c(=O)c2c1	-46%	?	?	/

Structure	miR-21 FLuc	Rango-impB inh	Rango release inh	GLA inh pH 4.5
CN(C)c1nc(N(C)C)nc(N(C)C)n1	0%	0.5%	-19%	?
O=C(NCCCCCCNC(=O)OCc1ccccc1)OCc1ccccc1	/	1.4%	15%	/
CC/C(=N\OC(=O)c1ccc(OC(C)C)cc1)c1ccc(C)cc1	-2%	-0.8%	11%	-15
Cc1onc(-c2ccccc2Cl)c1C(N)=O	-5%	-3.9%	-1%	3
N/C(=N\c1nc2ccccc2o1)NC(=O)c1ccccc1F	-41%	-0.1%	-3%	2
Cc1ccc(OCCCC(=O)NC2CCCCC2)cc1	-10%	0.7%	16%	/
COc1ccc(CNC(=O)COC(=O)c2ccc(S(=O)(=O)N3CCOCC3)cc2)cc1	/	-2.5%	-1%	/
Cc1cc(NC(=O)c2cc(-c3ccc(Br)cc3)on2)no1	-5%	0.0%	-2%	-9
COCCNC(=O)Nc1ccc2nc(C)sc2c1	-15%	-3.5%	-11%	1
COC(=O)c1ccc2ccn(CC(=O)NC(C)C)c2c1	-1%	-3.0%	-7%	-6
